Autofluor counter = flagged as autofluorescent in microsphere protease counterscreen; fluorescence intensity (no concentration beside the values); AID 624483; compound autofluorescence counterscreen, microsphere flow cytometry; active compounds read high; 360,000 compounds, 3.1% hits;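 active means at least 3 SD above the mean of all compounds, about 16000 in these data; inconclusive means too few beads counted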;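 further: 100 nL of 1 mM stock went into each well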
Mtb hypoxia rep = reduces hypoxia-regulated biosensor signal in M. tuberculosis; 300,000 compounds, 0.1% hits; M. tuberculosis hypoxia-regulated fluorescent reporter, fluorescence; fluorescence inhibition, % (test concentration not listed); AID 1159583;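 active means 35 to 45% if threefold the growth effect, above 45% if 1.5-fold the growth effect; inactive means the rest, general growth blockers included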;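 further: wells of about 50 µL received 100 nL stock; 0% = vehicle wells and 100% = reference inhibitor wells; whole bacteria with a GFP reporter of the hypoxia response; strong numbers were not always called active; many hits fall short of the cut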
Sa RN4220 lethal = S. aureus RN4220 growth inhibition | AID 1259311 | inhibition, % (test concentration not listed) | 330,000 compounds, 0.33% hits | OD600, 16 h;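 active means z-score of -3 or lower and OD600 up to 0.18 on both plates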;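 further: plate controls were untreated cells for no effect and reference antibiotic for full effect; stock transfer was 100 nL into about 80 µL; one replicate is shown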
PrP UTR inh = suppresses PrP 5' UTR mRNA reporter expression; cell-based PrP 5' UTR mRNA reporter, plate reader; inhibition, % (concentration not given with the values); 340,000 compounds, 0.35% hits;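 active means every replicate at 50% or more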;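 further: 0 = median of the neutral control wells; tested in H4 reporter cells; numbers are from one replicate; inactives centre near -14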
BJeLR viability = BJeLR cell viability loss; inhibition, % (no concentration beside the values); 300,000 compounds, 0.17% hits; BJeLR (HRASV12) viability, CellTiter-Glo ATP luminescence, 48 h; reference of the scale not given here;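 active means replicate mean above 50%; inconclusive means above 50% but judged a plate artefact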;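 further: 50 nL library stock added to about 25 µL; numbers are from one replicate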
Sa ugtP lethal = compounds lethal to S. aureus RN4220 ugtP deletion mutant | growth inhibition, % (test concentration not listed) | 330,000 compounds, 0.54% hits | OD600 growth, 16 h; some inactives read as strong as hits;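 active means z-score under -3 and OD600 up to 0.15 on both plates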;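 further: plate controls were untreated wells for no effect and antibiotic for full effect; wells of about 80 µL received 100 nL stock; the first replicate is given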
Mtb hypoxia rep growth = second read-out of Mtb hypoxia rep, no call of its own (marks repeat the call); growth inhibition, %; measured here: M. tuberculosis growth (absorbance);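 0% = vehicle and 100% = reference antibiotic; read after six days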
An asterisk follows results filed as active; ? = inconclusive; / = no result given.

SMILES	Autofluor counter	Mtb hypoxia rep	Mtb hypoxia rep growth	Sa RN4220 lethal	PrP UTR inh	BJeLR viability	Sa ugtP lethal
CSC1=NCCN1C(=O)c1cccc(C(F)(F)F)c1	4389	/	/	-1.7	5	14	3
CN(Cc1ccccc1)S(=O)(=O)c1nnc(NC(=O)c2ccccc2F)s1	5274	10	-3	31	-4	3	25
CCNC(=O)C(=O)NCCc1ccc(Cl)cc1	7686	4	3	4.2	-25	-10	14
CC1CCCCC1NC(=O)c1ccc(S(=O)(=O)N2CCN(C)CC2)cc1 (stereo unspecified)	3488	15	13	1.5	-5	-12	6
O=C(CN1C(=O)c2ccccc2C1=O)OCC(=O)c1ccccc1	5993	-11	3	3.2	-2	-11	1
O=C(NCc1ccccc1)c1ccc(F)c(F)c1	4342	/	/	1.7	-12	-11	7
CC(=C/c1ccccc1)/C=C1/SC(N2CCOCC2)=NC1=O	3001	-85	-30	3.8	-44	-3	-15
COc1ccccc1OCC(=O)Nc1ccccc1C(=O)NCc1ccco1	2767	4	10	4.3	-7	0	-1
O=C(O)c1cc2ccccc2cc1Nc1ccccc1	3399	11	2	15	-14	6	-4
COc1cc(CC2COC(=O)C2(O)Cc2ccc(O)c(OC)c2)ccc1O (stereo unspecified)	5731	/	/	3.9	7	9	15
NC(CO)c1cn(C(Cc2cc3ccccc3[nH]2)C(=O)N2CCNCC2)nn1 (stereo unspecified)	/	19	12	3.8	/	/	2
CCOC(=O)C1CCN(CCCSc2ccc(C)cc2)CC1	4186	/	/	/	-13	-10	/
COc1ccc(C(=O)CSc2nncn2C)cc1	2758	/	/	1.7	-24	3	-1
COc1ccccc1C(=O)COC(=O)c1nc(Cl)ccc1Cl	?	0	-1	5.1	-17	3	7
Cc1ccc(C2C3=C(CCCC3=O)Nc3[nH]c(=S)[nH]c(=O)c32)cc1 (stereo unspecified)	9431	3	6	2.3	-29	3	-7
O=C(c1ccccc1NS(=O)(=O)c1cccc(C(F)(F)F)c1)N1CCc2ccccc21	2264	3	4	9.2	-3	-3	1
Cc1ccc(-n2c(SCC(=O)Nc3ccc4c5c(cccc35)CC4)nc(O)cc2=O)cc1	3012	4	-2	7.7	-17	-13	12
COc1cccc(NC(=O)CN(C)C(=O)CSCc2nc3scc(-c4cccs4)c3c(=O)[nH]2)c1	?	2	-1	1.0	-14	-6	-8
O=C(O)CC(NC(=O)Nc1ccccc1)c1ccc(OC2CCCC2)cc1 (stereo unspecified)	4391	0	20	2.0	-4	-10	0
Cc1cc(N2CCN(c3ccccc3)CC2)nc(N)n1	20567*	7	21	8.1	-32	5	-8
COc1cccc(CNS(=O)(=O)c2cn(C)cn2)c1	3115	/	/	-1.0	-11	-5	4
Nc1c(C(=O)NC2CCCC2)c2nc3ccccc3nc2n1N=Cc1ccco1	/	6	5	7.0	/	/	0
CCOc1ccc(NC(=O)CSc2nc3ccccc3nc2N2CCOCC2)cc1	5937	5	6	5.8	-19	5	2
Cc1ccc(C2(O)CN(c3ccccc3C)C3=[N+]2CCS3)cc1 (stereo unspecified)	2546	5	10	5.8	-15	8	3
O=C(CCc1nc(-c2ccc(F)cc2)no1)NCc1ccccc1CN1CCOCC1	3080	8	2	4.6	-36	/	7
COc1cc(S(=O)(=O)N2CCCCC2)ccc1NC(=O)c1ccccc1Cl	13754	-4	-2	-0.9	-28	-6	-4
COc1cc(NN=Cc2ccccc2O)ncn1	/	11	3	3.0	/	/	-3
COc1ccccc1NC(=O)C[n+]1ccccc1	4601	5	-2	2.1	-13	4	3
CCOc1cc(N2CCOCC2)c(OCC)cc1NC(=O)Cc1cccc2ccccc12	4231	/	/	-3.3	-6	-1	18
O=C(COC(=O)c1ccc(S(=O)(=O)NCc2ccco2)cc1)NC1CCCCC1	2389	/	/	3.6	-2	8	8
O=C(NCc1ccc(F)cc1)C1CC(=O)N(C2CCCC2)C1 (stereo unspecified)	3536	5	1	4.2	-3	/	7
Cn1c(SCC(=O)Nc2ccccc2F)nnc1-c1cccs1	3740	-6	9	4.9	-15	1	3
Cn1cccc1C=NNC(=O)c1ccco1	/	5	4	5.2	/	/	2
CCN1CCN(c2cc(C)c3cc(NC(=S)N4CCCCC4)ccc3n2)CC1	3503	-9	-9	0.2	-7	-6	-1
Cc1ccc(S(=O)(=O)NC(CC(=O)NCC2CCCO2)c2ccccc2)cc1 (stereo unspecified)	3992	0	5	10	-14	-3	0
CC(=O)c1cccc(NC(=O)CCNC(=O)c2ccccc2Cl)c1	3708	-3	6	2.3	/	2	11
COC(=O)C1=C(c2ccc(F)cc2F)CC2CCC1N2C(=O)NCCOc1ccccc1 (stereo unspecified)	/	4	6	5.3	/	/	-1
COc1ccc(S(=O)(=O)NCc2ccc(C(=O)NCCCN3CC(C)CC(C)C3)cc2)cc1 (stereo unspecified)	5811	-6	-1	1.6	-9	3	4
CCN1C(=O)/C(=C\C(=O)c2cccs2)c2cc(Br)ccc21	3967	-10	1	37	-8	5	31
Cc1ccc(S(=O)(=O)Nc2ccc3[nH]ccc3c2)cc1	3603	4	9	4.0	-21	2	7
COC(=O)Nc1nnc(Cc2ccc(Cl)cc2)s1	10219	22	21	3.7	-19	-7	0
CSc1nnc(C)c(=O)n1COC(=O)COc1ccccc1	2632	10	6	3.5	-12	-10	3
COc1ccc(-n2c(Cc3ccccc3)nnc2SCC(=O)N2CCCc3ccccc32)cc1	4561	/	/	1.6	-12	4	-7
COc1ccc(OC)c(NC(=O)c2ccc(S(=O)(=O)N3CCN(C)CC3)cc2)c1	22427*	0	-1	2.0	-19	-1	-1
CC(=O)c1cccc(NC(=O)C(C)OC(=O)/C=C/c2cccs2)c1 (stereo unspecified)	15264	2	2	1.6	-31	/	8

Some of the entries so far, field by field:
SMILES: COc1cc(CC2COC(=O)C2(O)Cc2ccc(O)c(OC)c2)ccc1O (stereo unspecified)
  Autofluor counter = 5731	Mtb hypoxia rep = /	Mtb hypoxia rep growth = /	Sa RN4220 lethal = 3.9	PrP UTR inh = 7	BJeLR viability = 9	Sa ugtP lethal = 15
SMILES: NC(CO)c1cn(C(Cc2cc3ccccc3[nH]2)C(=O)N2CCNCC2)nn1 (stereo unspecified)
  Autofluor counter = /	Mtb hypoxia rep = 19	Mtb hypoxia rep growth = 12	Sa RN4220 lethal = 3.8	PrP UTR inh = /	BJeLR viability = /	Sa ugtP lethal = 2

The list continues.
SMILES	Autofluor counter	Mtb hypoxia rep	Mtb hypoxia rep growth	Sa RN4220 lethal	PrP UTR inh	BJeLR viability	Sa ugtP lethal
CCN(CC)C(=O)N1CCN(C(=O)c2ccc(C)cn2)CC1	2856	15	11	-11	-14	3	-1
O=C(N/N=C/c1cc(Br)ccc1O)Nc1ccccc1	2053	/	/	/	-41	6	/
CC1Oc2ccccc2N(CC(=O)Nc2ccc3c(c2)OCCO3)C1=O (stereo unspecified)	11423	6	0	-0.4	-16	-17	6
CCOc1ccc(Br)cc1C1C(C(=O)OC)=C(N)Oc2cc(N(C)C)ccc21 (stereo unspecified)	3094	-4	7	-12	-21	18	11
Cc1ccc(S(=O)(=O)NNC(=O)C(O)(c2ccccc2)c2ccccc2)cc1	9052	8	1	7.8	-29	-6	-4
CSc1ccccc1OCc1cc(C(=O)N(C)Cc2c(C)n[nH]c2C)no1	6729	11	-1	3.4	-22	-4	-1
COc1cccc(-n2c(=O)c3sccc3n(CC(=O)NC3CCCCC3)c2=O)c1	3175	-3	-4	6.3	-9	7	9
O=C(CCS(=O)(=O)c1ccc2c(c1)NC(=O)CO2)NCCc1ccccc1	5615	-8	2	1.2	-7	5	3
Cc1ccc(C(=O)CCC(=O)Nc2ccc(Cl)c(S(=O)(=O)Nc3cccc(Cl)c3)c2)cc1	2017	-6	2	3.5	2	-21	-29
O=C(NCc1ccc(F)cc1)C(=O)NCC1OCCN1S(=O)(=O)c1ccc2c(c1)OCCO2 (stereo unspecified)	4816	12	4	2.7	-48	2	1
Cc1sc2ncn(CC(=O)NCCN3CCOCC3)c(=O)c2c1S(=O)(=O)N1CCC(C)CC1	9825	5	7	2.6	-17	-1	2
Fc1cccc(CON=Cc2c(-c3ccccc3)nc3ccc(Cl)cn23)c1	/	38*	24*	-4.4	/	/	8
O=C(COc1c(Cl)cc(Cl)cc1Cl)c1ccc(Cl)cc1	2544	11	7	1.5	-24	9	4
N#C/C(=C/c1cccnc1)c1ccccc1	4297	10	5	0.9	-27	-5	9
Cc1ccc(C(=O)N/N=C\c2ccc(OC(=O)c3cccs3)cc2)cn1	2036	/	/	/	-25	2	/
Cc1c(OCC(=O)OC(C)C)ccc2c3c(c(=O)oc12)CCC3	2481	/	/	-4.1	-20	-5	14
COC(=O)c1cc(NC(=O)Cc2ccc(OC)c(OC)c2)cc(C(=O)OC)c1	5175	/	/	0.8	-20	2	-2
C/C(CC(=O)Nc1ccc(C)cc1C)=N\NC(=O)C(C)C	2010	/	/	/	-21	8	/
CC(=O)c1cccc(N(C(=O)CNC(=O)c2ccco2)C(C(=O)NCc2ccco2)c2ccccc2)c1 (stereo unspecified)	3066	/	/	/	-15	4	/
CCOC(=O)c1ccccc1NC(=O)c1ccc(N(C)S(C)(=O)=O)cc1	12286	7	4	1.5	-11	3	1
COc1ccccc1CNC(=O)COC(=O)COc1ccccc1Cc1ccccc1	6522	-2	-8	4.1	-28	-1	4
Cc1cccc(NCC(=O)N/N=C\c2ccccn2)c1	4391	/	/	/	-13	-2	/
COc1cc(NC(=O)Cc2ccc([N+](=O)[O-])cc2)c(C(=O)O)cc1OC	2347	16	3	1.6	-16	-1	2
CCc1nc2ccccc2n1CCc1ccccc1	3207	15	9	6.6	-21	-4	13
CCOC(=O)c1c(CN2CCCCC2C)oc2ccc(OC)cc12 (stereo unspecified)	22711*	-11	3	0.2	-20	14	27
CCc1cc2c(=O)c(-c3nc4ccccc4n3C)coc2c(CN2CCCCC2C)c1O (stereo unspecified)	3504	-11	7	-0.5	-39	10	-1
CCOc1ccccc1NC(=O)COC(=O)c1ccc(S(=O)(=O)N2CCCC2)cc1	6435	2	-4	4.2	2	/	5
CCc1c(C)sc(NC(=O)OC)c1C(=O)N1CCCCC1	7271	8	-4	4.0	1	-9	10
CC(C)CNC(=O)c1ccccc1SCC(=O)NC12CC3CC(CC(C3)C1)C2	2668	9	6	4.5	-17	8	2
Cc1ccc(NC(=S)NC(=O)C2CC2)cc1Cl	5277	20	14	-6.5	-31	/	24

Structural class: those above with a CF3 group (two)
SMILES	Autofluor counter	Mtb hypoxia rep	Mtb hypoxia rep growth	Sa RN4220 lethal	PrP UTR inh	BJeLR viability	Sa ugtP lethal
CSC1=NCCN1C(=O)c1cccc(C(F)(F)F)c1	4389	/	/	-1.7	5	14	3
O=C(c1ccccc1NS(=O)(=O)c1cccc(C(F)(F)F)c1)N1CCc2ccccc21	2264	3	4	9.2	-3	-3	1

(listing goes on)
SMILES	Autofluor counter	Mtb hypoxia rep	Mtb hypoxia rep growth	Sa RN4220 lethal	PrP UTR inh	BJeLR viability	Sa ugtP lethal
Cc1cc(C)cc(-n2c(=O)c3ccccc3n(CC(=O)NCC3CCCO3)c2=O)c1 (stereo unspecified)	3303	9	8	3.5	-14	-14	13
Cc1nnc(NC(=O)CCS(=O)(=O)c2ccccc2)s1	3589	1	4	1.2	7	1	5
Cc1ccc(N(CCC#N)C(=O)CN2C(=O)NC(Cc3ccccc3)C2=O)cc1 (stereo unspecified)	4324	-1	9	1.9	-21	-10	-3
COc1cccc(NCCC(=O)c2cccc([N+](=O)[O-])c2)c1	4104	-4	14	4.5	-30	7	-1
Cc1ncc(CNC(=O)N(CCCl)N=O)c(N)n1	5016	1	-7	2.5	-15	/	0
CC(C)=CCC[C@](C)(OC1OC(COC2OCC(OC3OCC(O)C(O)C3O)C(O)C2O)C(O)C(O)C1O)C1CC[C@]2(C)C1C(O)CC1[C@@]3(C)CCC(O)C(C)(C)C3C(O)C[C@]12C (stereo partly specified)	/	7	9	5.7	/	/	-15
Cc1ccc(C(=O)NNC(=S)NC(=O)c2ccc(Cl)cc2)cc1	11218	2	0	39	/	7	21
C=CCn1c(=O)c2c3c(sc2n2c(Nc4ccc(OC)cc4)nnc12)CCCC3	3719	/	/	-3.4	-28	/	-11
Cc1ccnc(N2C(=O)OC(C)(C)C2(C)O)c1 (stereo unspecified)	16787*	1	-6	3.3	9	2	7
Fc1ccc(NC(=S)Nc2cccc3ccccc23)cc1F	5593	0	2	-4.9	-8	-1	-16
N#C/C(=C\c1ccc(N2CCOCC2)o1)C(=O)NC1CCCCC1	/	/	/	5.2	-49	11	1
CCOC(=O)/C(N=Nc1ccc(C(=O)O)cc1[N+](=O)[O-])=C(\C)O	4406	-1	-7	3.7	-22	4	7
